MgrA-DNA mod = alters Staphylococcus aureus MgrA binding to DNA; fluorescence polarization; inhibition, %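 (about 10 µg/mL by stock and volumes)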; actives 0.13% (n = 84,000);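 active = above 50% in either of two replicates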;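 note: 0% = protein plus DNA without compound and 100% = DNA alone without protein; higher means less MgrA bound to DNA so lower polarization; one replicate is shown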
S aureus helic = blocks Staphylococcus aureus DNA helicase | AID 485395 | actives 0.05% (n = 120,000) | inhibition, %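 (tested at about 80 µM)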 | purified S. aureus helicase, fluorescence unwinding assay; about half of the hits fall short of the stated cut;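 active = both duplicates at 50% or more, or one of them with a favoured structure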;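 note: 0% = mean of negative control wells and 100% = mean of positive control wells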
* marks the source's active call; other numbers are inactive results; . = not tested or not shown; & = joins results of further samples. This is a subset; rates above refer to the full screens.

Results follow in this order: MgrA-DNA mod | S aureus helic
Cn1c(=O)n(C)c2cc(C(O)COc3ccc(CNC(C)(C)C)cc3)ccc21 (stereo unspecified)
    . | -7.0
CC1CCc2[nH]nc(C(=O)O)c2C1 (stereo unspecified)
    -0.3&-1.9 | -5.0&9.0
COc1ccc(OCCSc2nc3ccccc3n2CCO)cc1
    -9.8 | .
Cc1cccc(C(=O)N2CCOCC2)c1
    0.5 | 13.0
CC(=O)OC1C(c2ccccc2)=NN(C(C)=O)C1c1ccccc1 (stereo unspecified)
    -1.0 | 3.0
NC1c2ccccc2-c2ccccc21
    . | 6.0
NC(=O)C1CCCCN1C(=S)NC1CCCCC1 (stereo unspecified)
    . | -12.0
COc1ccccc1C(c1c(O)[nH]c(=S)[nH]c1=O)N(Cc1ccccc1)C(C)C (stereo unspecified)
    10.6 | 8.0
CCOc1ccc(-c2cc(N)n(S(=O)(=O)c3ccccc3)n2)cc1
    . | 3.0
CC(C)N1CCC(=O)N(c2ccccc2)C1=O
    -4.7 | .
O=C(CCCn1sc2ccccc2c1=O)Nc1ccccc1F
    . | 10.0
COC(=O)Cn1c(=N)n(CCN2CCCCC2)c2ccccc21
    . | 34.0
Cc1nc2scc(CC(C)C)c2c(=O)[nH]1
    . | -14.0
Cc1ccc([N+](=O)[O-])c(NC(=O)NC(=O)c2c(Cl)cccc2Cl)c1C
    -0.5 | .
Cc1c(S(=O)(=O)c2ccc(Cl)cc2)cnc2cc(C3CC3)nn12
    0.0 | .
COc1cccc(/C=C2/SC(=Nc3ccccc3Cl)NC2=O)c1OC
    0.2 | .
Cc1sc2nc(CN3CCOCC3)nc(NS(=O)(=O)c3ccc4c(c3)OCCO4)c2c1C
    . | -11.0
O=C(NNC(=O)C1c2ccccc2Oc2ccccc21)c1cccc(C(F)(F)F)c1
    -0.4 | .
OCCN1CCN(C(=S)/N=C(/Nc2ccccc2)c2ccccc2)CC1
    . | 1.0
CN(C)CCSc1nnc(NCc2ccccc2O)s1
    . | -3.0
Oc1ccccc1N=Cc1c(Cl)nc2sccn12
    3.5 | .
CN(C)/N=C(\NO)c1c(Cl)cccc1Cl
    -1.6 | .
C/C(N)=C(/C#N)C(=O)CN(C)C1CCCCC1
    . | -15.0
CCc1cccc(NC(=O)OC2CCN(C)CC2)c1
    -2.7 | -6.0
Cc1cccc(NC(=S)N(CCN(C)C)Cc2cc3cc4c(cc3[nH]c2=O)OCO4)c1
    -4.2 | 10.0
Nc1cccc2c1C(=O)N(CCOc1ccccc1F)C2=O
    . | -31.0
COC(=O)CSc1nc2ccccc2o1
    . | 9.0
Clc1ccc(C=NCC2COc3ccccc3O2)cc1 (stereo unspecified)
    1.9 | -12.0
C=CCn1c(NCc2ccc(N(C)C)cc2)nc2ccccc21
    . | -10.0
COc1cc2c(cc1OC)-c1nnc(-c3cccnc3)n1C1(CCCC1)C2
    -1.7 | 12.0
Cc1ccccc1-c1n[nH]c(=S)n1/N=C/c1ccc(N(C)C)cc1
    6.0 | 23.0
COc1ccccc1S(=O)(=O)CC(SC#N)c1ccccc1 (stereo unspecified)
    3.6 | 0.0
Cc1noc(C(F)(F)F)c1C(=O)O
    -4.9 | .
c1csc(-c2nc3ccc4ccccc4c3c3c2CCC3)c1
    0.0 | -13.0
O=C(c1cccc2c1NC(c1ccc(Cl)cc1Cl)C1CC=CC21)N1CCCC1 (stereo unspecified)
    -2.2 | .
CS(=O)(=O)c1ccc(F)cc1
    . | -12.0
Oc1cc(C(F)(F)F)cc(C(F)(F)F)c1
    0.9 | -16.0
Cc1ccc(N2C(=O)C(C=NCc3ccc(C(=O)O)cc3)C(=O)NC2=S)cc1 (stereo unspecified)
    1.2 | 11.0
Cc1ccc(N2CCN(C(=O)N3CCCCCC3)CC2)cc1Cl
    7.3 | 21.0
CC(=O)N(CN1C(=O)c2ccccc2C1=O)c1ccc2ccccc2c1
    -0.5 | 3.0

Another view of part of the listing above:
smiles | MgrA-DNA mod | S aureus helic
COC(=O)Cn1c(=N)n(CCN2CCCCC2)c2ccccc21 | . | 34.0
Cc1nc2scc(CC(C)C)c2c(=O)[nH]1 | . | -14.0

Carrying on:
Results follow in this order: MgrA-DNA mod | S aureus helic
CCS(=O)(=O)N1CCC(Oc2ccc(-n3cnnn3)cc2)CC1
    . | -14.0
CCOC(=O)c1cnn(C)c1N
    0.2 | .
NC(=O)/C=C\c1cn(-c2ccccc2)nc1-c1ccc(F)cc1
    -2.5 | -8.0
Cc1ccc(NC(=O)Cn2c(=O)/c(=C3\C(=O)Nc4ccccc43)s/c2=C\C#N)cc1
    . | -12.0
O=C(C1=C(O)C(=O)N(c2nncs2)C1c1cccs1)c1cccs1 (stereo unspecified)
    . | -129.0
c1ccc2[nH]c(Nn3cnnc3)nc2c1
    -1.2 | 11.0
CCn1cc(C(=O)NCc2ccc3c(c2)OCO3)c(=O)c2cc(S(=O)(=O)N(C)C)ccc21
    . | -7.0
CC1(C)CC(=O)C=C(SCc2cccc(Cl)c2)S1
    -0.7 | .
CCOC(=O)C(C)Oc1ccc(NC(=O)C(Cl)(Cl)Cl)cc1 (stereo unspecified)
    -2.1 | .
CC(C)C(NC(=O)c1ccccc1F)C(=O)Nc1ccc(N2CCOCC2)cc1 (stereo unspecified)
    . | -2.0
COc1cc(/C=N/N=C2/C(=O)Nc3ccccc32)ccc1OCC(=O)N1CCOCC1
    . | 14.0
c1ccc2[nH]c(-c3ccc(Sc4nnnn4C4CCCC4)nc3)nc2c1
    . | 7.0
O=C(Cn1c(=O)oc2ccccc21)NC12CC3CC(CC(C3)C1)C2
    -0.9 | 5.0
COc1ccc(C2=N/C(=C\c3ccco3)C(=O)O2)cc1
    0.5 | 7.0
COc1ccc2c3c1OC1CC(O)C=C[C@@]31CCN(C)C2 (stereo partly specified)
    . | 10.0
Fc1ccc(Oc2ccc3nnc(-c4ccccc4)n3n2)cc1
    -1.2 | .
CCOC(=O)C1CCN(S(=O)(=O)C(F)(F)c2nc3ccccc3s2)CC1
    . | -9.0
COc1ccc(C2C(C(C)=O)=C(C)N=c3s/c(=C\c4cc(C)n(-c5ccccc5)c4C)c(=O)n32)c(OC)c1 (stereo unspecified)
    -0.4 | .
O=S(=O)(NCc1csc2ccc(Cl)cc12)c1cc(S(=O)(=O)c2ccccc2)cs1
    0.1 | .
O=C(O)c1ccc2c3c(cccc13)C(=O)N(c1ccccc1O)C2=O
    10.1 | -14.0
COc1ccc(CCNC(=O)CCCc2nnc3n(C)c(=O)c4sccc4n23)cc1OC
    . | 13.0
CCc1ccc(NC(=S)NC(=O)/C=C/c2ccco2)cc1
    4.8 | 13.0
CCO/C=C1\SC(=S)N(Cc2ccccc2)C1=O
    23.8 | .
CCOC(=O)c1cc(-c2ccc(F)cc2)n(CC(=O)NCc2cccs2)c1C
    . | 0.0
CCCOc1ccc(C(C)(O)CN2CCOCC2)cc1 (stereo unspecified)
    -2.3 | -8.0
COc1ccc2nc3c(nc2c1)CCCC3
    -1.6 | .
COc1ccc(C(=O)NCCN2CCCC2)cc1OC
    -3.7 | 3.0
O=C(Nc1ccc2[nH]c(=O)[nH]c2c1)c1cc(-c2ccco2)nc2ccccc12
    . | 4.0
CCOC(=O)c1ccc(NC(=O)CSc2nnc(CNC(=O)c3ccco3)n2-c2ccc(F)cc2)cc1
    . | -15.0
CCCC(C)C(=O)NCc1ccccc1 (stereo unspecified)
    -1.1 | 15.0
O=C(N[C@@H](Cc1ccccc1)C(=O)NCc1cccs1)c1cccs1
    . | -6.0
COC(=O)C1C2C=CC3(CN(C(c4ccccc4)c4ccccc4)C(=O)C13)O2 (stereo unspecified)
    2.2 | 13.0
COc1cccc(-c2cc(C(F)(F)F)nc(SC3CC(=O)C4OCC3O4)n2)c1 (stereo unspecified)
    3.2 | 5.0
O=C(Cc1ccc(Cl)cc1)N1CCN(c2ccc(F)cc2)CC1
    1.1 | 8.0
Nc1nc(SCC(=O)N2CCCC2)[nH]c(=O)c1-c1ccccc1
    -1.5 | 1.0
N#Cc1c(-c2ccccc2)cc(C2CC2)nc1N
    -4.9 | 15.0
Cc1c(S(=O)(=O)c2ccc(Cl)cc2)csc1C(=O)NCc1ccco1
    0.0 | .
CCOC(=O)N1CCC(NC(=O)CNC(=O)c2ccco2)CC1
    . | 11.0
Cc1ccc(C(=O)NCC(O)c2ccccc2)cc1 (stereo unspecified)
    1.1 | .
NC1=NC(=Nc2ccccc2)c2ccccc21
    -2.1 | -1.0
O=C(CCCOc1ccc(Cl)cc1)N1CCCCCC1
    -2.0 | 16.0
O=C(O)C1C2C=CC(C2)C1C(=O)NCc1ccc2c(c1)OCO2 (stereo unspecified)
    0.4 | 3.0
CC(=O)OCC(=O)[C@@]1(O)CCC2C3CCC4CC(=O)CCC4(C)C3CCC21C (stereo partly specified)
    0.8 | -9.0
CC(=O)N1CC(C(=O)Nc2cccc3ncccc23)Oc2ccccc21 (stereo unspecified)
    . | -32.0
COc1ccc(-c2nc3n(c2N)CCS3)cc1
    . | -20.0
CC(C)(Oc1ccc(Cl)cc1)C(=O)OCCN1CCCC1=O
    0.6 | -16.0
CCn1c(-c2ccccc2)cs/c1=N/NC(=O)c1ccncc1
    . | 9.0
S=c1[nH]nc(-c2ccncc2)n1Cc1ccccc1
    0.9&3.8 | 2.0
CCOC(=O)N1CCC(NC(=O)c2nn(-c3ccc(C)cc3)c(=O)c3c2c2ccccc2n3C)CC1
    0.8 | 16.0
CCOC(=O)CNc1ccc(Cl)c(Cl)c1
    1.9 | .

Next entries follow:
Results follow in this order: MgrA-DNA mod | S aureus helic
CCCc1c(C(=O)O)cnn1-c1ccc(Cl)cc1
    -3.2 | .
O=C(Nc1ccc(-c2nc3ccccc3o2)cc1)C1=COCCO1
    . | 6.0
CC(=O)Oc1cn(C(C)=O)c2ccccc12
    0.1 | 0.0
FC(F)(F)c1cc(-c2cccnc2)nc2cc(C3CC3)nn12
    . | -18.0
O=C(O)/C=C\C(=O)NCc1ccc2c(c1)OCO2
    . | -5.0
Cc1ccccc1S(=O)(=O)Cc1ccc(C(=O)NCCCN2CCCC(C)C2)o1 (stereo unspecified)
    . | 10.0
CCCCN(CC)C(=O)c1sc2ncnc(N3CCN(c4ccc(OC)cc4)CC3)c2c1C
    1.6 | 0.0
COC(=O)CCC(=O)c1oc2ccc(Cl)cc2c1N
    -1.1 | .
Cc1cc(C(F)(F)F)nn1CC(=O)Nc1ccc2c(c1)OCO2
    0.8 | 7.0
Cc1ccc(-c2ccc(N)cc2)cc1
    -5.5 | 6.0
CC(C)(C)n1nc2c(c1NC(=O)/C=C/c1ccccc1)CSC2
    4.1 | -1.0
CC(C)(C)OC(=O)N1CCCN(C(=O)Nc2ccccc2)CC1
    . | 15.0
CC(C)N=Cc1cc2n(c1O)-c1ccccc1C2=O
    16.4 | -266.0
Cc1ccc(Cn2c(C(C)O)nc3ccccc32)cc1 (stereo unspecified)
    . | 20.0
COc1ccc(S(=O)(=O)N2CCC(NC(=O)NC3CCCC3)CC2)cc1
    . | -8.0
COc1ccccc1OCCNC(=O)c1ccc(S(=O)(=O)N(C)C)cc1
    -1.1 | 6.0
CC(C)(C)c1ccc(C(=O)Nc2n[nH]c(C(F)(F)F)n2)cc1
    2.7 | 0.0
COC(=O)C1CN(C)CCC1=O (stereo unspecified)
    -8.6 | -5.0
CC(Sc1ncnc2nc[nH]c12)c1ccccc1Cl (stereo unspecified)
    -2.8 | 10.0
Cc1nc2c(cc1C(=O)NN)c(=O)n(C)c(=O)n2C
    1.1 | -2.0
O=C(CN1C(=O)C2CCc3[nH]c4ccccc4c3C2C1=O)N1CCCC1 (stereo unspecified)
    1.1 | 6.0
COC(=O)c1sc2ccccc2c1OC(=O)c1cccnc1Oc1ccccc1
    -1.1 | .
Cc1cc(=O)n2c3c(sc2n1)C(=O)N(Cc1ccccc1)C3=O
    -1.0 | -4.0
CC(=O)N1CCc2cc(C(O)CN(Cc3ccccc3)Cc3ccccc3)ccc21 (stereo unspecified)
    . | 22.0
CCOC(=O)C(CC)Sc1nc2c(c(=O)[nH]c(=O)n2C)n1C (stereo unspecified)
    -2.3 | .
CCC(C)NC(=O)c1cccc2c1SCCC2=O (stereo unspecified)
    1.4 | 1.0
O=C(c1cnn(C(=O)C2COc3ccccc3O2)c1)c1ccccc1O (stereo unspecified)
    . | 8.0
CCOC(=O)N1CCC(C(=O)O)CC1
    . | 7.0
CCOc1ccc2cc(S(=O)(=O)N3CCN(C)CC3)ccc2c1
    . | 21.0
Cc1[nH]n(-c2ccccc2)c(=O)c1CCC#N
    -0.1 | -6.0
Cc1[nH]c(=O)[nH]c(=O)c1S(=O)(=O)N1CCOc2ccccc2C1
    . | 4.0
Clc1ccc2nc(CN3CCCCC3)cn2c1
    -3.4 | -1.0
Cn1nc(SCC(=O)N2c3ccccc3CCc3ccccc32)sc1=S
    0.0 | 13.0
C=CCn1c(Cc2ccccc2)nc2c(cnn2-c2ccccc2)c1=O
    . | -14.0
Oc1nc2c(Cl)c(Cl)c(Cl)cc2o1
    . | 30.0
Cc1nc2c(C(=O)N3CCC4(CC3)OCCO4)c[nH]n2c(=O)c1Cc1ccccc1Cl
    0.6 | 4.0
CCOc1ccc(-c2cnc(SCC)nc2N)cc1
    3.7 | 6.0
Cc1nc2sccn2c1Br
    . | 3.0
C/C(=N\NC(=O)c1ccc(CSc2nc3ccccc3[nH]2)cc1)c1ccco1
    . | 0.0
CC(=O)Oc1ccc(N(C(C)=O)S(=O)(=O)c2cccs2)cc1
    . | -18.0
C=CCn1c(=O)c(C(=O)Nc2ccccc2)c(O)c2ccccc21
    . | -30.0
CCCCc1c(C)nc(C2CC2)[nH]c1=O
    -2.6 | .
Nc1nnc2ccccc2n1
    . | 37.0
CCC(=O)Nc1c(CC)cccc1CC
    2.5 | -1.0
O=C(NC1CCCC1)C1COc2ccccc2O1 (stereo unspecified)
    0.8 | 4.0
Cc1nc(CCn2cnc3cc(C)c(C)cc32)no1
    . | -15.0
